# Bioassay records (PubChem BioAssay)
# VACV Venus inh = vaccinia inhibition (Venus reporter). Vaccinia virus Venus reporter expression, fluorescence. Potency, µM (doses to about 36.5 µM), for inactives: top-dose activity change, negative = inhibition, actives largely listed as inhibitors. actives 0.46% (n = 330,000). AID 720580; active means well fitted inhibition curve with a large enough effect; inconclusive means small, poorly fitted or top-dose-only effect; inactive means no such curve, though single readings can be large or run the other way; tested in A549 cells; note: nearly all actives have a fitted effect of over 30% in size; inactives centre near -10
# Vaccinia mCherry = vaccinia inhibition (mCherry reporter); actives 0.63% (n = 310,000); Vaccinia virus mCherry reporter infection, fluorescence; about a quarter of the inactives have no number; AID 720579; Potency, µM (top dose mostly 36.5 µM), without a hit: at the highest dose activity change, negative = inhibition, hits mostly inhibitors; active = well fitted inhibition curve with a large enough effect; inconclusive = small, poorly fitted or top-dose-only effect; inactive = no such curve, though single readings can be large or run the other way; tested in A549 cells; note: nearly all actives have a fitted effect of over 35% in size; inactives centre near -10
# Numbers without * were called inactive; i = inactive; u = inconclusive; x = no result given; & = joins results of further samples. % is set by controls: 0 for no effect and ±100 for the full control effect; potency is the fitted concentration of half-maximal effect.
molecule | Vaccinia mCherry | VACV Venus inh
Cc1ccccc1C1N(c2nccs2)C(=O)C2CCCN21 (centres undefined) | i | -5%
CCC(=O)OC1(C)C(=O)C=C2C=C(C3CC3)OC=C2C1=O (centres undefined) | i | -2%
COc1ccc(C(=O)Nc2nnc(SCc3cc(=O)n4cccc(C)c4n3)s2)cc1 | i | -3%
N#C/C(C(=S)Nc1ccccc1)=C1/NN=C(N2CCOCC2)N1c1ccccc1 | -11% | -17%
Cc1ccc(C2CC(c3ccccc3)=NN2C(=O)CSc2nnc(-c3ccc(Cl)cc3)o2)o1 (centres undefined) | x | -5%
COc1cc2c(=O)n(CCC(=O)NCC3CCCO3)c(=O)n(CC(=O)Nc3ccc(C)cc3C)c2cc1OC (centres undefined) | -7%&-4% | 8%&0%
CC(=O)c1cc(F)c(N2CCOCC2)cc1C | i | -9%
Cc1ccc2[nH]c3c(N4CCOCC4)ncnc3c2c1 | -26% | -19%
CCCCOc1ccc(C(O)(CCC)CCN2CCOCC2)cc1 (centres undefined) | -5% | -20%
Fc1ccc(-n2nnc(-c3cnc4ccccc4c3)n2)cc1 | u | -15%
COc1cc(/C=C2/SC(=S)N(c3ccccc3)C2=O)ccc1Oc1nc(N2CCOCC2)nc(N2CCOCC2)n1 | -4% | -3%
O=C(C1COc2ccccc2O1)N1CCN(Cc2ccc(Br)cc2F)CC1 (centres undefined) | -14% | 0%
O=C(CSc1nnc(CNC(=O)c2cccc(F)c2)n1-c1ccccc1)Nc1ccccc1F | -8% | -1%
CCNc1nc(SCC(N)=O)nc2sc3c(c12)CCN(C)C3 | -8% | 7%
CCOc1ccc(-n2c(=O)c3c(C)c(C)sc3n(CC(=O)NCCc3ccccc3)c2=O)cc1 | -13% | -9%
CNP(=O)(Oc1ccccc1)OC12CC3CC(CC(C3)C1)C2 (centres undefined) | -4% | -25%
COC(=O)C1=C(c2cccc(OCc3ccccc3)c2)C[C@@H]2CC[C@H]1N2C(=O)NCc1cccc(OC)c1 | u | -19%
C=C(C)Cn1c(SCCCO)nc2c1c(=O)[nH]c(=O)n2C | -24% | -21%
C[C@H](c1ccccc1)N1C[C@@H](COCc2ccccc2)Oc2cc(N3CC[C@H](N(C)C)C3)ccc2S1(=O)=O | -17% | -18%
CC1(C(=O)Nc2ccc3c(c2)OCCO3)CSCC(=O)N1Cc1ccco1 (centres undefined) | -8% | -2%
CCN(C(=O)COC(=O)/C=C/c1nc2ccccc2s1)C1CCS(=O)(=O)C1 (centres undefined) | -15% | -16%
Fc1ccc(-c2nc3c4ccccc4ccn3c2Cc2cccc(Cl)c2)cc1 | -11% | 12%
O=C(CN(C(=O)c1csnn1)c1cccc2ccccc12)NCc1ccc(F)cc1 | u | -4%
CNc1cc(-c2ccc(C(=O)OC)cc2)ncn1 | -11% | -6%
CC(=O)Nc1ccc(Cl)cc1-c1ccccc1 | -9% | u
COc1ccc2c(c1)[nH]c1c(=O)n(Cc3ccncc3)cnc12 | -6% | -6%
OCC1CCCN(Cc2cn(Cc3ccccc3)nc2-c2cc3ccccc3o2)C1 (centres undefined) | -23% | -26%
Cc1c(C(=O)NCc2ccccc2)oc2ccc(S(=O)(=O)N3CCC(C)CC3)cc12 | -16% | -16%
O=C(NN=C(Cc1ccccc1)Cc1ccccc1)C1CC1 | i | -7%
Cc1nnc(N/N=C/c2ccc(-c3ccccc3F)o2)n1N | u | 28µM*

# In a second layout: entries from further up
> N#C/C(C(=S)Nc1ccccc1)=C1/NN=C(N2CCOCC2)N1c1ccccc1
  Vaccinia mCherry: -11%; VACV Venus inh: -17%
> Cc1ccc(C2CC(c3ccccc3)=NN2C(=O)CSc2nnc(-c3ccc(Cl)cc3)o2)o1 (centres undefined)
  Vaccinia mCherry: x; VACV Venus inh: -5%
> COc1cc2c(=O)n(CCC(=O)NCC3CCCO3)c(=O)n(CC(=O)Nc3ccc(C)cc3C)c2cc1OC (centres undefined)
  Vaccinia mCherry: -7%&-4%; VACV Venus inh: 8%&0%

# More compounds follow.
molecule | Vaccinia mCherry | VACV Venus inh
COc1ccc(CCn2c3c(c(=O)[nH]c2=S)CN(C(C)C)CN3)cc1OC | -15% | -10%
Cc1ccc(Cn2cc(CCC(=O)NCc3ccc(OC(C)C)cc3)c3ccccc32)cc1 | -12% | -7%
O=C(NCc1ccccc1)c1cc(C2CCCN(C(=O)c3ccc4c(c3)CCO4)C2)on1 (centres undefined) | i | -10%
COc1ccc(N(C(=O)Cc2cccs2)C(C(=O)NC2CCCC2)c2ccncc2)cc1OC (centres undefined) | -7% | -5%
CC(C)N(C)Cc1nnnn1CC(=O)NCCc1cccc(C(F)(F)F)c1 | -12% | 8%
CCn1ccc(C(=O)NC2=NCCS2)n1 | i | -8%
O=C1CC(c2nnc(Cc3ccc(F)cc3)o2)CN1c1ccccc1 (centres undefined) | -6% | -13%
CCn1c(C)[n+](CC)c2ccc(S(=O)(=O)NC)cc21 | 0% | 2%
Cn1c(=O)c([N+](=O)[O-])c(N2CCN(Cc3ccc4c(c3)OCO4)CC2)c2ccccc21 | -6% | -26%
N#CC1=C(N)OC2=C(C(=O)CC(c3ccccc3)C2)C1c1cccnc1 (centres undefined) | -1% | -15%
Cc1ccc(S(=O)(=O)N2CCCCC2)cc1NC(=O)c1cncc(Br)c1 | -29% | -28%
CCOC(=O)C1(C)CCCN1C(=O)c1cccc2ccccc12 (centres undefined) | 11% | -5%
NC(N)=NCCN1CCCCCCC1 | i | -14%
CN(CC(=O)Nc1cccc(S(=O)(=O)N2CCCC2)c1)Cc1ccccc1 | -15% | -2%
Cc1cccc(NC(=O)C2C3C=CC(C4CC34)C2C(=O)O)c1 (centres undefined) | x | -24%
N#CCCN/N=C(\Cc1nc2ccccc2[nH]1)c1ccccc1 | -25% | 0%
Cc1cc(C(=O)N2CCC2(C)C(=O)NS(=O)(=O)c2ccccc2Cl)nn1C (centres undefined) | 27% | -7%
Cc1[nH]c2c(ccc3cccnc32)c1C | -11% | -16%
COc1ccc2c(c1)C(=O)C1NC(=O)NC(=O)C1(Br)N2 (centres undefined) | i | 13%
O=C(CSc1nccn1-c1ccccc1)c1ccc(Cl)cc1 | x | -17%
O=[N+]([O-])c1cccc(/C=N/N2CCN(Cc3ccccc3)CC2)c1 | -13% | -7%
CCc1ccc(NC(=O)N(CCCOC(C)C)C2CCN(C(C)=O)CC2)cc1 | i | -12%
CCN(CCCNC(=O)C1CCN(S(=O)(=O)CC)CC1)c1cccc(C)c1 | -15% | -7%
CC(C)(C)c1ccc(S(=O)(=O)N2CCC(Oc3ccc(-n4cnnn4)cc3)CC2)cc1 | -7% | -10%
COc1cccc(C(=O)Nc2ccc3ccccc3c2)c1 | i | -7%
Cc1ccc(/C=N/n2c(-c3cccnc3)n[nH]c2=S)s1 | -8% | -10%
COc1cc(/C=C2/C(=O)ON=C2C)cc(Cl)c1O | -14% | 0%
Nc1nonc1-n1nnc(C(=O)N/N=C/c2ccc3c(c2)OCO3)c1-c1ccccc1 | -5% | -5%
Cc1nn(-c2ccccc2)c(Cl)c1C(=O)NCc1cccs1 | -14% | -8%
OC1CCCN(Cc2cn(Cc3ccccc3)nc2-c2cc3ccccc3o2)C1 (centres undefined) | -7% | -14%

molecule | Vaccinia mCherry | VACV Venus inh
O=C(CSc1ccc(-c2ccccn2)nn1)NCc1ccccc1 | -11% | 1%
Cc1cccc(C)c1-n1nnnc1C(c1ccnc2ccccc12)N1CCCC1 (centres undefined) | -3% | -9%
C=CCNC(=O)COC(=O)C1CCN(S(=O)(=O)c2ccc3c(c2)OCCO3)CC1 | -8% | -2%
Cc1cccc2cc(CN(Cc3ccc4c(c3)OCO4)Cc3nnnn3C3CCCC3)c(=O)[nH]c12 | -3% | -4%
CC(C)(C)c1ccc(Oc2ccc(NC(=O)CCC(=O)OCC(=O)c3ccccc3)cc2)cc1 | -15% | -7%
CCC(C)NC(=O)Nc1ccc(F)c(Cl)c1 (centres undefined) | 4% | -3%
c1ccc(-c2cncnc2)nc1 | i | -18%
CC(O)C(C(=O)OCc1ccc([N+](=O)[O-])cc1)N1C(=O)c2ccccc2C1=O (centres undefined) | -6% | -8%
CCn1c(CC2C(=O)Nc3ccccc32)nc2ccccc2c1=O (centres undefined) | -7% | 5%
O=C(NCC(c1cccnc1)N1CCc2ccccc21)c1ccccc1Br (centres undefined) | -14% | -19%
O=S(=O)(c1ccc(F)cc1)N1CCC(n2cnc3ccccc32)CC1 | -12% | -4%
COc1cc2ccc(=O)oc2cc1OCC(O)C(C)(C)O (centres undefined) | 16% | 3%
Cc1ccc(C(=O)OC2CCS(=O)(=O)c3sccc32)cc1 (centres undefined) | x | -17%
COc1ccc(-c2nc3c4ccccc4ccn3c2C=O)cc1 | i | 8%
CC(C)CN(C(=O)c1cccc(F)c1)c1c(N)n(CC(C)C)c(=O)[nH]c1=O | -22% | 3%
NC(=O)CC(NC(=O)Cc1ccc(Cl)cc1)c1ccc(NCC2CC2)c([N+](=O)[O-])c1 (centres undefined) | -11% | -14%
CCCN1CCN(C(=S)Nc2ccccc2C(F)(F)F)CC1 | -29% | u
CC(C)N(C(=O)[C@H]1C[C@H](CC(=O)NCCC2=CCCCC2)C(=O)N2CCc3c([nH]c4ccc(Cl)cc34)[C@]12C)C(C)C | u | 16µM*
On1nnc2cc(C(F)(F)F)ccc21 | i | 12%
N#Cc1nc(-c2ccc(COc3ccccc3)o2)oc1NCc1ccccc1 | -19% | -17%
CCN(CC)C(=O)[C@H]1C[C@H](CC(=O)NCc2ccco2)C(=O)N2CCc3c([nH]c4cc(-c5ccco5)ccc34)[C@]12C | -9% | u
Cc1cc(N2CCN(C)CC2)ccc1NC(=O)c1c2c(nc3ccccc13)CCN(Cc1ccccc1)C2 | -23% | u
CCOC(=O)C1=C(C)NC(=S)NC1c1cccs1 (centres undefined) | 0% | -16%
CCC(C(=O)Nc1c(C)cccc1C)n1c(-c2ccc(-c3ccccc3)cc2)nc2ccccc21 (centres undefined) | -20% | -16%
O=C(c1cc2c(c(-c3cccc(-c4ccncc4)c3)n1)[C@@H](CCO)N(C(=O)c1ccc3c(c1)OCO3)C2)N1CCOCC1 | -5% | 6%
COCCn1cnnc1SCC(=O)c1ccc(S(=O)(=O)N2CCCC2)cc1 | -7% | -6%
Cc1nn(Cc2ccccc2)c2c1C(c1ccco1)C(C#N)=C(N)O2 (centres undefined) | x | -3%
CCOC(=O)C1=C(Nc2ccccc2)CSC1 | -6% | -20%
CC(=O)Nc1ccccc1OCCCN1CCC(C(O)(c2ccccc2)c2ccccc2)CC1 | -16% | -7%
O=C(CCC(=O)c1cccs1)OCC(=O)c1ccccc1F | -14% | -9%

# A different layout for part of the listing above.
# Under each structure – Vaccinia mCherry, VACV Venus inh
> CCC(C)NC(=O)Nc1ccc(F)c(Cl)c1 (centres undefined)
→ 4%, -3%
> c1ccc(-c2cncnc2)nc1
→ i, -18%
> CCCN1CCN(C(=S)Nc2ccccc2C(F)(F)F)CC1
→ -29%, u

# Further compounds follow:
molecule | Vaccinia mCherry | VACV Venus inh
Cc1cc(C)n2nc(CNC(=O)c3c(F)cccc3F)nc2n1 | -7% | -11%
CN(CC(=O)Nc1ccccc1Br)Cc1nc2ccccc2c(=O)[nH]1 | x | -26%
CC(OC(=O)c1cccnc1Cl)C(=O)Nc1ccc(S(N)(=O)=O)cc1 (centres undefined) | -14% | -6%
CCCCn1c(=O)[nH]c(=O)c2c(C(=O)OCC)cc(-c3cccs3)nc21 | -3% | -3%
O=C1NCN(c2ccccc2)C12CCN(C(CCc1ccccc1)c1nnnn1Cc1ccccc1)CC2 (centres undefined) | i | 0%
COC(=O)[C@]12CCCCC=C1N(CCc1ccc(OC)c(OC)c1)C(=O)[C@H](CC(=O)NCC13CC4CC(CC(C4)C1)C3)C2 | u | u
Cc1ccc2c(CN(C)Cc3ccccc3)cc(=O)oc2c1 | 0% | 2%
CSc1cccc(NC(=O)Nc2ccccc2)c1 | -12% | -22%
CC1CCC(=NNc2ccc(C(F)(F)F)cc2[N+](=O)[O-])CC1 (centres undefined) | i | 2%
O=C(Nc1ccc2nc(-c3ccccn3)c(-c3ccccn3)nc2c1)N1CCCC1 | -28% | -22%
CCC(Oc1ccc(C)cc1)C(=O)Nc1ccc(S(=O)(=O)Nc2cc(C)on2)cc1 (centres undefined) | 8% | -1%
Nc1c(-c2nc(-c3ccc(Cl)cc3)cs2)c2ccccn2c1C(=O)c1ccc2c(c1)OCO2 | 1% | 0%
C=CCn1c(C)c(C(C)=O)cc(NC(=O)c2ccccc2)c1=O | i | -11%

# Of the compounds above, 5 have a cyano group:
molecule | Vaccinia mCherry | VACV Venus inh
N#C/C(C(=S)Nc1ccccc1)=C1/NN=C(N2CCOCC2)N1c1ccccc1 | -11% | -17%
N#CC1=C(N)OC2=C(C(=O)CC(c3ccccc3)C2)C1c1cccnc1 (centres undefined) | -1% | -15%
N#CCCN/N=C(\Cc1nc2ccccc2[nH]1)c1ccccc1 | -25% | 0%
N#Cc1nc(-c2ccc(COc3ccccc3)o2)oc1NCc1ccccc1 | -19% | -17%
Cc1nn(Cc2ccccc2)c2c1C(c1ccco1)C(C#N)=C(N)O2 (centres undefined) | x | -3%

# Not a hit list; about 0.88% have a hit in one of these screens.
